# CDC25B-CDK2 inh = primary biochemical HTRF screen for blockers of M-phase inducer phosphatase 2 binding to CDK2/cyclin A | P30305+P24941 | HTRF CDC25B-CDK2/CyclinA binding, anti-His/anti-Flag; stronger effect = higher value | z-score (no concentration beside the values) | 0.72% of 94,000 active;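 further: score is relative to mean and SD of negative controls; strong numbers were not always called active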
# TAR Tat displ = TAR RNA-Tat peptide displacers, HIV-1, primary screen, biochemical, FRET, FAM/TAMRA-labeled Tat. HIV-1 TAR RNA, Tat peptide displacement FRET; stronger effect = higher value. 0.6% of 100,000 active. z-score (concentration not given with the values). AID 1259389, 2018;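 further: score is relative to mean and SD of negative controls; some compounds called inactive have numbers as strong as hits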
# * hit, by the source's call; nt = not tested or not shown.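 How the source made its calls: active means z-score from 3 up in half or more of its runs; inactive means the rest.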 Compounds as they come. About 0.87% of those tested had a hit in this group.
molecule,CDC25B-CDK2 inh,TAR Tat displ
COc1ccc2c(c1)c(N1CCCC1=O)c(C(=O)NCC1CCCO1)n2C (configuration not stated),nt,1.12
Cc1cc(C)c2c3c(sc2n1)C(=O)N(c1ccccc1F)C(C)N3 (configuration not stated),-0.24,2.76
Cc1ccc(CNc2nc(N3CCN(C4CCCCC4)CC3)nc3c2cnn3C)cc1,nt,1.96
O=S(=O)(c1cc(-c2noc(C3CC3)n2)cs1)N1CCn2c1nc1ccccc12,nt,0.62
O=C1CCc2cc(S(=O)(=O)N3CCOCC3)cc3c2N1CCC3,nt,0.38
CC(C)NC(=O)C1CCN(C(=O)c2cc3ccsc3[nH]2)CC1,nt,0.35
CN1C(=O)c2cc(C(=O)NCCN3CCOCC3)nn2CC1(C)C(=O)NC1CCCCC1 (configuration not stated),nt,0.26
CC1Cc2cc(S(=O)(=O)N3CCC(C(=O)NC4CC4)CC3)ccc2N1C(=O)C1CC1 (configuration not stated),nt,1.15
CCOC(=O)c1cc(S(=O)(=O)N2CCC(C)CC2)cn1C,-0.94,1.62
CN(CC(=O)N1CCc2ccccc21)S(=O)(=O)c1cc2c(cc1Cl)NC(=O)CO2,nt,-0.77
Cc1cc(NC2c3ncccc3C(=O)N2c2ccccc2)ccc1Br (configuration not stated),nt,1.33
CC1CCCC(NS(=O)(=O)c2ccc3oc(=O)c4ncn(C)c4c3c2)C1C (configuration not stated),nt,0.57
CN(C)CCNC(=O)C1CCN(C(=O)C2(n3cccc3)CCCCC2)CC1,-1.4,1
COc1ccc(-c2cc(-c3ccc(OC)cc3)nc(NS(=O)(=O)c3ccccc3)n2)cc1,-0.66,-0.52
O=C1c2cccnc2C(=O)N1Cc1ccc(S(=O)(=O)NC2CCCc3ccccc32)s1 (configuration not stated),nt,-0.94
Cc1ccc(S(=O)(=O)c2ccc(Cl)cc2)cc1S(=O)(=O)NCc1ccco1,-2.22,0.5
Cc1c(NC(=O)NCCCN2CCOCC2)sc2nc3n(c(=O)c12)CCC(C)CC3 (configuration not stated),10.1*,0.6
O=C(Cn1nc(-c2ccco2)ccc1=O)NCc1ccco1,nt,1.4
Cc1ccc(S(=O)(=O)n2ccn(C(=O)C3CCCC3)c2=O)cc1,nt,-0.13
CCOc1ccccc1NC1OC(=O)c2ccccc21 (configuration not stated),-0.88,-0.36

# Some values from the entries so far:
# COc1ccc(-c2cc(-c3ccc(OC)cc3)nc(NS(=O)(=O)c3ccccc3)n2)cc1 in TAR Tat displ has -0.52
# O=C1c2cccnc2C(=O)N1Cc1ccc(S(=O)(=O)NC2CCCc3ccccc32)s1 (configuration not stated) in TAR Tat displ has -0.94
# CCOc1ccccc1NC1OC(=O)c2ccccc21 (configuration not stated) in TAR Tat displ has -0.36

# Continued.
molecule,CDC25B-CDK2 inh,TAR Tat displ
O=C(CCS(=O)(=O)c1ccc2c(c1)CCN2C(=O)C1CC1)NC1CCCCC1,nt,0.78
O=C1OC(OC(=O)c2ccccc2F)C(Nc2ccc(C(=O)O)cc2)=C1Cl (configuration not stated),0.4,nt
O=C(NCCc1cccs1)c1ccc(CS(=O)c2ccc(Br)cc2)o1 (configuration not stated),nt,0.81
COc1cc2c3cc1Oc1c(OC)c(OC)cc4c1[C@@H](Cc1ccc(OC(=O)c5ccc([N+](=O)[O-])cc5)c(c1)Oc1ccc(cc1)C[C@@H]3N(C)CC2)N(C)CC4,nt,1.4
Cc1c(CNCC2CCCO2)c(C(=O)O)c(C)n1Cc1ccc(F)cc1 (configuration not stated),-0.96,0.75
CC1(C)N=C(N)NC(Nc2cccc(Br)c2)=N1,0.33,nt
CCOC(=O)c1c(S(=O)(=O)Nc2cc(OC)cc(OC)c2)c(C)n(C)c1C,nt,1.45
CCCCNc1sc(S(=O)(=O)CC)nc1S(=O)(=O)c1ccc(Cl)cc1,-0.88,-1.55
CCOC(=O)N1CCN(c2c(N3CCN(C(=O)OCC)CC3)c(=O)c2=O)CC1,-1.84,-1.69
CCC(O)c1nc2ccccc2n1CCOc1ccccc1Cl (configuration not stated),-0.74,-0.72
Cc1occc1-c1nnc(SC(C)C(=O)Nc2ccccc2)o1 (configuration not stated),-2.1,1.28
CC(C)(C)c1ccc(-c2nc3n(c(=O)c2C#N)CCCCS3)cc1,-0.83,0.59
Cc1cc(C)c(-c2c(Nc3ccc(F)cc3)c(=O)c2=O)cc1C,nt,-0.16
CCn1c(=O)n(CC)c2cc(NC3=C(C(=O)N4CCOCC4)S(=O)(=O)c4ccccc43)ccc21,nt,1.44
COc1ccc2nc(SCCN(C)C)[nH]c2c1,0.66,nt
Cc1cc(C(=O)Nc2ccccc2N2CCCCC2)no1,-1.12,nt
COc1ccc(Br)cc1CN1CCC(N2CCCCC2)CC1,-1.03,-0.08
O=S(=O)(c1cnc[nH]1)N1CCN(Cc2ccccc2)CC1,-0.45,1.9
Cc1nc2nc(-c3ccco3)[nH]n2c(=O)c1Cc1ccccc1,12.6*,1.08
C[C@@H]1CC2OC(=O)[C@@]3(C)C(=O)CC[C@@](C)(C23)[C@@]1(O)CCc1ccoc1 (some centres not stated),nt,1.62
FC(F)(F)c1nc2ccccc2n1Cc1nnc2n1N=C(c1ccccc1)CS2,nt,0.93
Cc1cc(=O)n2nc(N(C)CC(=O)NC3CCCc4ccccc43)sc2n1 (configuration not stated),-0.91,1.17
N#Cc1c(NC(=O)c2ccc3snnc3c2)sc2c1CCCC2,-1.63,1
COc1ccc(N(C(C)C(=O)O)S(C)(=O)=O)cc1 (configuration not stated),-0.73,0.93
COc1ccc(-c2nn(Cc3nc(-c4ccc(C)cc4)oc3C)c(=O)c3noc(C)c23)cc1,nt,-0.4
CSc1nn2c(=O)c(Cc3ccccc3)nnc2s1,-1.87,nt
Cc1cccc(-c2noc(-c3cc(C)cc(C)c3)n2)c1,-2.63,1.95
O=C(CSc1ncccn1)N1c2ccccc2CCc2ccccc21,-0.28,nt
COc1ccc(-c2nc(=S)c3c([nH]2)Oc2ccccc2C3)c(OC)c1,-0.13,-0.1
N[C@@H](Cc1ccccc1)c1nnc(SCc2ccc(Cl)cc2)o1,3.65,0.94
COCCNS(=O)(=O)c1ccc2c(c1)CC(C)N2C(=O)C1CC1 (configuration not stated),nt,0.19
O=C(O)COc1nsnc1N1CCCCC1,-1.27,1.22
COc1cccc(-c2nc(-c3ccc(C)s3)no2)c1OC,nt,2.05
O=C(CSc1ncnc2c1sc1cccc(F)c12)NC1CCCCC1,nt,0.35
CCOC(=O)c1sc(SCC)nc1NC(=O)Nc1ccccc1,-0.42,-0.11
CC1CCC(NS(=O)(=O)c2ccc(CCN3C(=O)c4cccnc4C3=O)cc2)CC1 (configuration not stated),nt,0.74
CCCc1nnc2sc(NC(=O)C3CCCCC3)nn12,-1.15,-0.12
O=C(Nc1cccc(F)c1)N1CC2CCCN2c2ccccc21 (configuration not stated),2.13,-0.31
Cc1cc(C)cc(-n2nnc(-c3nc(-c4ccncc4)no3)c2N)c1,nt,-1.46
COc1ccccc1/C=C/c1nc(C#N)c(NCC2CCCO2)o1 (configuration not stated),-1.83,1.42
Cc1ccc(Cn2c3ccccc3c3nnc(NCCCN4CCCC4=O)nc32)cc1,-1.33,1.54
Cc1cccc(Cn2c(Sc3nccc(C)n3)nc3c2c(=O)[nH]c(=O)n3C)c1,-0.95,0.17
CCOC(=O)c1c(NC(C)=O)c2c(C)c(C)sc2n1CC(=O)Nc1c(C)cc(C)cc1C,nt,1.08
Cc1ccc(C(CNC(=O)c2cc(=O)c3ccccc3o2)N(C)C)o1 (configuration not stated),-1.77,0.38
Cc1nnc2sc(COc3ccc(Cl)cc3)nn12,0.59,0.34
Cc1ccc(N2C(=O)c3cccnc3C2Nc2ccc(Br)cc2F)cc1 (configuration not stated),-6.1,-0.15
COc1ccc(-n2cc(-c3ccccc3)c3c(NCc4ccc5c(c4)OCO5)ncnc32)cc1,-1.89,1.52
O=S(=O)(c1ccc2nc(Nc3cccc(F)c3)ccc2c1)N1CCCC1,nt,2.22
CCCCCn1c(CN2CCCC(C)C2)nc2c1c(=O)n(C)c(=O)n2C (configuration not stated),-1.03,0.22
CNc1oc(-c2ccccc2)nc1C#N,-0.33,0.56

# Whole records, looked up by structure.
# COc1ccc2c(c1)c(N1CCCC1=O)c(C(=O)NCC1CCCO1)n2C (configuration not stated) is listed with CDC25B-CDK2 inh = nt; TAR Tat displ = 1.12
# CCCc1nnc2sc(NC(=O)C3CCCCC3)nn12 is listed with CDC25B-CDK2 inh = -1.15; TAR Tat displ = -0.12
# Cc1ccc(N2C(=O)c3cccnc3C2Nc2ccc(Br)cc2F)cc1 (configuration not stated) is listed with CDC25B-CDK2 inh = -6.1; TAR Tat displ = -0.15

# Later entries.
molecule,CDC25B-CDK2 inh,TAR Tat displ
Cc1nc2ccc(S(=O)(=O)N(C)CC(=O)NC3CCCC(C)C3C)cc2s1 (configuration not stated),-1.18,1.83
Cc1cc(=O)n2nc(N3CCCC(C(=O)NCC4CCCO4)C3)sc2n1 (configuration not stated),0.65,0.33
Cc1nc(-c2ccc(S(=O)(=O)NCCCc3ccccc3)cc2)co1,nt,0.5
CCOc1ccc(-c2cccc(NS(=O)(=O)c3ccc(C)cc3C)c2)nn1,nt,0.22
CN(C)CCOC(=O)COc1ccc(Cl)cc1,-1.17,0.79
COc1ccc(-c2nnc3c4cc5c(cc4n(Cc4ccccc4OC)cc2-3)OCO5)cc1,-1.44,1.08
Cc1nn(CC(=O)NCc2ccco2)c(=O)c2c(-n3cccc3)n(-c3ccc(Cl)cc3)nc12,nt,0.67
Cc1cc(OCc2nc(-c3ccccc3)no2)ccc1Cl,0.11,nt
Cc1nc(N2CCCC2)cc(N2CCN(S(=O)(=O)c3ccc(Cl)cc3)CC2)n1,-1.1,0.07
O=c1c(-c2ccccc2)c(N2CCOCC2)c1=O,nt,1.02
Cc1cc(C(=O)N2CCN(c3ncccn3)CC2)nn1C,-2.38,nt
CCOc1ccc(C2c3c(oc4ccccc4c3=O)C(=O)N2c2ccccn2)cc1OCC (configuration not stated),1.39,0.49
CC(NS(=O)(=O)c1ccc2c3c(cccc13)C(=O)N2)C1C2CC3CC(C2)CC1C3 (configuration not stated),-0.55,nt
CCCNS(=O)(=O)c1ccc2c(c1)CCCN2C(C)=O,-1.61,nt
O=C(c1cnn2c(-c3ccccc3)cc(-c3ccccc3)nc12)N1CCCC1,nt,0.57
NS(=O)(=O)c1ccc(NC(=O)C2=Cc3cc(Br)ccc3OC=C2)cc1,-0.49,-0.51
Cc1cnc(NS(=O)(=O)c2cccc3nonc23)c(Br)c1,0.69,nt
C=CCSC1=C(C#N)C(c2ccccc2)CC(=O)N1 (configuration not stated),-2.67,-0.6
O=C(c1ccc2c(c1)N(CC(=O)N1CCc3ccccc31)C(=O)CO2)N1CCCC1,nt,1.51
Cc1nnc2ccc(NCc3ccccc3)nn12,1.18,0.95

# 2 of the compounds above, field by field.
> Cc1nnc2ccc(NCc3ccccc3)nn12
  CDC25B-CDK2 inh: 1.18; TAR Tat displ: 0.95
> O=C(c1ccc2c(c1)N(CC(=O)N1CCc3ccccc31)C(=O)CO2)N1CCCC1
  CDC25B-CDK2 inh: nt; TAR Tat displ: 1.51

# (listing goes on)
molecule,CDC25B-CDK2 inh,TAR Tat displ
Cc1c(C(=O)O)cnc2cc(-c3ccc(Cl)cc3)nn12,-0.82,0.88
COC(=O)c1cc(S(=O)(=O)N2CCN(c3ccc(OC)cc3)CC2)cn1C,-0.98,0.67
O=C(O)C1=CC(c2ccccc2OCc2ccccc2)n2ncnc2N1 (configuration not stated),-1.15,1.43
O=S(=O)(NCc1nnnn1-c1ccccc1)c1ccc(Cl)cc1,nt,0.5
CC1=C(C#N)C(c2cccc(O)c2)C2=C(CC(C)(C)CC2=O)N1 (configuration not stated),-0.52,1.41
COc1ccc2c(c1)CC(C(=O)Nc1cc(C)on1)CO2 (configuration not stated),nt,-0.21
O=S1(=O)C[C@H](NCCc2c[nH]c3ccccc23)[C@@H](S(=O)(=O)c2ccc(F)cc2)C1,-0.47,-2.3
Cc1nn(C(C)C(=O)N2CCc3ccccc32)c2ccccc12 (configuration not stated),-0.1,2.97
COc1ccc(N2C(=O)C3C(c4ccccc4)OC4(C(=O)c5ccccc5C4=O)C3C2=O)cc1OC (configuration not stated),-1.14,-0.07
CCc1nc2c(cnn2-c2ccc(Cl)cc2)c(=O)n1-c1ccc2c(c1)OCCO2,-3.91,nt
COc1cc(OC)c(NC(=O)C2=C(C)C(=O)OC23CCN(C(C)=O)CC3)cc1Cl,nt,1.55
O=C1CC(c2ccc(O)c(O)c2)c2c(nc(SCc3ccccc3)[nH]c2=O)N1 (configuration not stated),2.59,16.6*
CC(/C=C/c1cccnc1)=C\C(=O)O,-0.77,nt
C=CCOc1ccc(C2Nc3ccccc3S(=O)(=O)N2Cc2ccccc2)cc1 (configuration not stated),0.01,nt
CCCCNC(=O)c1c(O)nc2cc(C)ccn2c1=O,-0.64,1.07
Cc1cc(=O)nc2c3ccccc3n(C(C)C(=O)N3CCN(c4ccc(Cl)cc4)CC3)n12 (configuration not stated),1.26,0.02
CN1CCN(C(=O)CCc2nnc3ccc(NCc4ccc5c(c4)OCO5)nn23)CC1,nt,1.29
CN(C)c1ccc(C2NC(=S)NC3=C2N2CCC3CC2)cc1 (configuration not stated),-3.15,nt
COc1ccc(S(=O)(=O)N2CCc3cc4ccc(C)cc4nc32)cc1C,-1.06,-3.9
CCCCN(C)S(=O)(=O)c1cc2c3c(c1)CC(=O)N3CCC2,nt,1.37
O=C(CSc1ccccc1)Nc1cccc2nsnc12,nt,-0.88
CCOC(=O)C(N)CSC1CC(=O)N(c2ccc(Br)cc2)C1=O (configuration not stated),-1.31,nt
